# gsp agonist – qHTS for Agonist of gsp, the Etiologic Mutation Responsible for Fibrous Dysplasia/McCune-Albright Syndrome: qHTS | AID 624287, 2012 | Potency, µM (doses to about 76.9 µM), without a hit: at the top dose activation (cAMP increase), actives largely listed as activators | gsp mutant cells, cAMP HTRF, 30 min; control for the full effect not named in the record | 0.13% of 340,000 active; active = well fitted activation curve with a large enough effect; inconclusive = small, poorly fitted or top-dose-only effect, or another doubt; inactive = no such curve, though single readings can be large or run the other way; cell line not stated here;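 note: phosphodiesterase inhibitor Ro 20-1724 added with compounds to block cAMP breakdown; potency is the fitted concentration of half-maximal effect; nearly all actives have a fitted effect of over 60% in size; about a fifth of the inactives were tested at one dose only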
#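 Cells stably selected in G418 were plated at 2000/well, grown 16-24 hr, then given compounds in DMSO with the PDE inhibitor […] (300 uM solution added) for 30 min at 37C; cAMP was read by HTRF.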
# ClpP mod – qHTS Assay for Activators of ClpP; ATP-dependent Clp protease proteolytic subunit (Bacillus subtilis (strain 168)), P80244; purified B. subtilis ClpP, FRET peptide cleavage, 20 min; Potency, µM (top dose mostly 57.5 µM), for inactives: top-dose activity change, negative = active; 1.9% of 340,000 active; AID 651965, 2013; active = well fitted falling curve with a large enough effect; inconclusive = small, poorly fitted or top-dose-only effect; inactive = no such curve, though single readings can be large or run the other way; note: potency is the fitted concentration of half-maximal effect; the source files actives as falling curves though it sought activators and does not explain the sign; nearly all actives have a fitted effect of over 65% in size; many hits overshoot -100%
# Target sequence (P80244 whole entry, looked up): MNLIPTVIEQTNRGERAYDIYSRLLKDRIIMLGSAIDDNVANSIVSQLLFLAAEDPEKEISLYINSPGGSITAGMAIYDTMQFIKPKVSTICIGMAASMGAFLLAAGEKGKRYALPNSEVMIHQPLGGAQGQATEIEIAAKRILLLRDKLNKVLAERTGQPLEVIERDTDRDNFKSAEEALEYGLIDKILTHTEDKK
#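 ClpP 10 microg/mL final, pH 8 Tris/KCl buffer with BSA, glycerol, Tween-20; compound pinned in; FRET-FV substrate; RT 20 min; Ex320/Em430; ΔFRET vs ADEP 5.8 microM, DMSO, no enzyme.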
# TRPML1 inh – qHTS for Inhibitors of the Human Mucolipin Transient Receptor Potential 1 (TRPML1) | 0.02% of 390,000 active | Mucolipin-1 (Homo sapiens), Q9GZU1 | AID 624415, 2012 | activity change, negative = inhibition, % (no concentration beside the values) | TRPML1-inducible cells, Ca2+ dye fluorescence, FDSS; stronger effect = lower value; inhibition of EC80 agonist-evoked calcium signal; in the data active means activity change below about -50%; inconclusive means about -30% to -50%; inactive means above about -30%;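 note: stimulus is agonist 54-4 at its EC80 concentration; % is set by controls: 0 for no effect and ±100 for the full control effect; compound concentration not given in the record; the text of the record puts the active cut at -80%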
# Target sequence (Q9GZU1 whole entry, looked up): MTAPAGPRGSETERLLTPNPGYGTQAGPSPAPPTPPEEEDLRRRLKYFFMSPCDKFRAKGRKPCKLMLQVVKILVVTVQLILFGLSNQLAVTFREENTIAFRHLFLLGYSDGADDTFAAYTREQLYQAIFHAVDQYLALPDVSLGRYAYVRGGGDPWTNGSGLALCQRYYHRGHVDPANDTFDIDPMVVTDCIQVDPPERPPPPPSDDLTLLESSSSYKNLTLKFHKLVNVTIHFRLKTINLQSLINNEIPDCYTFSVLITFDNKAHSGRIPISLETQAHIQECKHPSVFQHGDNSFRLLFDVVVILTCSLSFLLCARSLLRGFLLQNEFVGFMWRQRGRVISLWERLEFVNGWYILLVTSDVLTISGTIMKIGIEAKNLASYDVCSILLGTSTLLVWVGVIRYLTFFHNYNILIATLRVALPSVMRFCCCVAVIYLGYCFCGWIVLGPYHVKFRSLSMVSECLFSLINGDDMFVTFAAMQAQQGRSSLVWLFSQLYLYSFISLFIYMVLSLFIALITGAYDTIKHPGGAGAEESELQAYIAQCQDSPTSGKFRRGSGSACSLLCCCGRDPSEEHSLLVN
#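 TRPML1-DL cells, Tet-induced overnight (~16 h, 37 °C) at 1,500 cells/well, were loaded with Ca8 no-wash dye plus quencher for 45-90 min at room temperature. Compounds were pinned during FDSS kinetic reading; agonist 54-4 at EC80 (4 uM final) then added.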
# TRPML1 agonist – qHTS for Agonists of the Human Mucolipin Transient Receptor Potential 1 (TRPML1) | TRPML1-expressing cells, Ca2+ dye fluorescence, FDSS; host cell line not named in the record; reference of the full effect not given here | activation, % (no concentration beside the values) | 0.12% of 410,000 active | AID 624414, 2012; in the data active = activation above about 50%; inconclusive = about 30% to 50%; inactive = below about 30%; note: 0% is about no effect; the text of the record puts the active cut at 80%
#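 Tet-induced TRPML1-DL cells, 1,500 per well, cultured overnight, were loaded with a no-wash Ca2+ dye for 45–90 min. Calcium fluorescence was recorded on the FDSS for 110 s after compound addition, before the EC80 agonist (4 uM 54-4) was added.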
# gsp antag – qHTS for Antagonists of gsp, the Etiologic Mutation Responsible for Fibrous Dysplasia/McCune-Albright Syndrome: qHTS | gsp-mutant cells, cAMP HTRF, 30 min; control for the full effect not named in the record | Potency, µM (top dose mostly 76.9 µM), for the others: top-dose activity change, negative = inhibition, most hits filed as inhibitors | 0.4% of 340,000 active; active = falling curve of any shape with a large fitted effect; inconclusive = falling curve, mostly with a smaller effect; inactive = flat or rising curve; cell line not stated here;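 note: intracellular cAMP measured with PDE inhibitor Ro 20-1724 present during compound exposure; potency is the fitted concentration of half-maximal effect; % is set by controls: 0 for no effect and ±100 for the full control effect; nearly all actives have a fitted effect of over 65% in size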
#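 G418-selected cells were plated in DMEM/10% FBS for 16-24 h at 37C, then treated with compounds plus the PDE inhibitor […] (300 uM solution added) for 30 min at 37C. Intracellular cAMP was measured by HTRF after 30 min lysis at room temperature.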
# Menin-MLL FL inh – qHTS Assay for Inhibitors Targeting the Menin-MLL Interaction in MLL Related Leukemias: Competition With Fluorescein Labeled MLL-derived Peptide; Fluorescence polarization, fluorescein-MLL peptide displacement from menin; FP activity change, % at 61.4 µM; 290,000 tested, under 10 active; AID 1766, 2009; inconclusive = falling polarisation curve, or a change in total fluorescence; inactive = total fluorescence flat and polarisation flat or rising; no compound was filed as active; the % refers to the polarisation; negative = inhibition;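 note: % of control where 0% means no effect; inhibitors lower the polarisation; unlabelled MLL peptide was the positive control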
# * = called active by the depositor; ? = inconclusive; / = no result given; & = joins results of further samples; [ ] = another dose, or the depositor's remark.
(1) Cc1ccc(C(=O)Nc2ccccc2N2CCN(C(=O)C(C)C)CC2)cc1C
(2) CCC1CCCCN1C(=O)Cn1c(=O)n(CC2CCC(C(=O)NC)CC2)c(=O)c2sccc21 (centres undefined)
(3) Cc1[nH]nc2c1C(C(C)C)C(C#N)=C(N)O2 (centres undefined)
(4) Cc1ccccc1NC(=O)c1c(NC(=O)c2cccs2)sc2c1CCC(C)C2 (centres undefined)
(5) Cc1ccccc1-c1n[nH]c(=S)n1/N=C/c1c(C)nn(-c2ccccc2)c1C
(6) CCOc1ccc2nc(NC(=O)CN3CCN(CC)CC3)sc2c1
Assay by compound	1	2	3	4	5	6
gsp agonist	-42.3%[inhibitor]	/	0.0%	/	17.1%	3.5%
ClpP mod	-2.7%	-1.6%	1.1%	-5.1%	-3.4%	-1.6%
TRPML1 inh	57.4	-14.2	-4.3	11.5	0.2	-7.6
TRPML1 agonist	4.7	-0.2	-1.2	0.1	0.4	-0.9
gsp antag	?	/	13.0%	/	-1.7%	10.6%
Menin-MLL FL inh	-0.2	/	-2.4	/	1.0	3.7

(7) Cc1ccc(NC(=O)c2cc(S(=O)(=O)N3CCCC3)cn2C)cc1
(8) CC1(C(=O)NS(=O)(=O)c2cccs2)CCN1C(=O)C1CC1 (centres undefined)
(9) O=[N+]([O-])c1cc(Cl)ccc1N1CCCC1
(10) CCOC(=O)C1=C(C)N(Cc2ccc(C(=O)O)cc2)C(=O)NC1c1ccc([N+](=O)[O-])cc1 (centres undefined)
(11) O=C(CN1CCC(O)(c2ccc(F)cc2)CC1)NCc1ccc(F)cc1
(12) Cc1cccc(Cn2c(CNS(=O)(=O)c3ccc(C(C)C)cc3)nc3cccnc32)c1
Assay by compound	7	8	9	10	11	12
gsp agonist	-32.6%[inhibitor]	/	9.9%	-6.1%	-41.6%[inhibitor]	/
ClpP mod	0.1%	1.6%	/	3.0%	0.2%	2.4%
TRPML1 inh	11.1	83.3	3.5	29.3	11.3	-7.0
TRPML1 agonist	-0.1	1.2	-0.6	-0.2	-0.4	1.1
gsp antag	1.2%	/	6.6%	2.1%	3.6%	/
Menin-MLL FL inh	0.8	/	0.4	1.4	4.3	/

(13) CCC(=O)NC(=S)Nc1ccc(NC(=O)c2cc3ccccc3o2)c(OC)c1
(14) COc1cccc(CNC(=O)CCC2CCCN(C(=O)c3ccc(OC)o3)C2)c1 (centres undefined)
(15) COc1cc(C(=O)NNC(=O)CNC(=O)c2ccc(Br)o2)cc(OC)c1OC
(16) O=C(NCc1ccccn1)c1cc(-c2ccc(Br)cc2)nc2ccccc12
(17) CCCC(C)C(=O)Nc1ccc(F)c(Cl)c1 (centres undefined)
(18) Nc1nc2n(n1)C(c1ccco1)CC(c1ccc(Cl)cc1)N2 (centres undefined)
Assay by compound	13	14	15	16	17	18
gsp agonist	8.5%	26.3%	?	3.2%	-31.8%[inhibitor]	2.8%
ClpP mod	/	0.2%	?	?	0.7%	-3.9%
TRPML1 inh	5.7	-4.2	-1.3	9.7	-1.5	-6.1
TRPML1 agonist	0.7	-0.5	0.6	2.5	-0.2	0.8
gsp antag	-13.7%	-3.5%	4.6%	?	6.7%	8.9%
Menin-MLL FL inh	4.1	0.4	/	3.2	1.4	3.0

# Full records from above. Order of values: gsp agonist, ClpP mod, TRPML1 inh, TRPML1 agonist, gsp antag, Menin-MLL FL inh
# `O=C(CN1CCC(O)(c2ccc(F)cc2)CC1)NCc1ccc(F)cc1` is entered as -41.6%[inhibitor], 0.2%, 11.3, -0.4, 3.6%, 4.3
# `COc1cccc(CNC(=O)CCC2CCCN(C(=O)c3ccc(OC)o3)C2)c1` (centres undefined) is entered as 26.3%, 0.2%, -4.2, -0.5, -3.5%, 0.4
# `CCOC(=O)C1=C(C)N(Cc2ccc(C(=O)O)cc2)C(=O)NC1c1ccc([N+](=O)[O-])cc1` (centres undefined) is entered as -6.1%, 3.0%, 29.3, -0.2, 2.1%, 1.4

# Further entries
(19) CC(C)NC(=O)c1cc2c(C(F)(F)F)nn(C)c2s1
(20) Cc1ccc(NS(=O)(=O)c2ccc3[nH]c(=O)[nH]c3c2)cc1
(21) COc1ccc(-c2cc(C(F)(F)F)n3nc(C(=O)Nc4cc(C)on4)cc3n2)cc1OC
(22) Cc1ccc(-c2cc(C(=O)NCc3ccco3)no2)cc1
(23) COc1ccc(Br)cc1CN(C)C(=O)c1cc(Cl)c2c(c1)OCCO2
(24) CCc1cc2c(=O)n(-c3ccccc3)c(=S)[nH]c2s1
Assay by compound	19	20	21	22	23	24
gsp agonist	27.8%	28.4%	27.9%	-38.4%[inhibitor]	-4.3%[15.4 µM]	?
ClpP mod	1.6%	1.4%	-9.3%	0.4%	/	0.1%
TRPML1 inh	-3.6	10.2	8.4	9.9	-12.7	21.4
TRPML1 agonist	-0.9	0.4	1.2	0.3	0.8	0.3
gsp antag	8.4%	25.2%	8.2%	5.3%	-12.5%	-24.6%
Menin-MLL FL inh	-0.7	0.8	0.6	6.5	-0.4	-0.1

(25) CCOc1ccccc1NS(=O)(=O)c1cccc2nsnc12
(26) COC1CC(=O)C2OC(c3ccccc3)OCC2O1 (centres undefined)
(27) COc1cc(C(=O)NCc2nnc(SCC(=O)NC3CCCC3)o2)cc(OC)c1OC
(28) COc1cc(OC)c(C2N(c3ccc(Cl)c(Cl)c3)C(=O)C3CCCN32)cc1OC (centres undefined)
(29) O=[N+]([O-])c1ccc(Cl)c(S(=O)(=O)N2CCCCCC2)c1
(30) O=C(CN(C(=O)c1csnn1)c1ccc(F)c(Cl)c1)NCc1ccc(F)cc1
Assay by compound	25	26	27	28	29	30
gsp agonist	-44.3%[inhibitor]	1.4%	-5.9%	-11.9%	-21.0%	-7.7%[15.4 µM]
ClpP mod	0.8%	0.1%	-6.5%	-4.3%	-5.5%	-2.5%
TRPML1 inh	53.4	6.7	-2.2	-17.0	23.0	26.9
TRPML1 agonist	0.2	0.0	-0.5	0.6	-0.7	-0.9
gsp antag	2.9%	/	11.4%	6.9%	-15.3%	7.6%
Menin-MLL FL inh	0.4	/	/	4.1	2.0	-0.2

(31) CC(C)(C)C1=CC(=O)C(N2CCOCC2)=CC1=O
(32) COc1cc(OC)c(OC)cc1CNc1nnnn1C
(33) CS(=O)(=O)c1ccc(Cl)c(NC(=O)COC(=O)CNC(=O)c2ccc(Br)o2)c1
(34) O=C(O)c1cc(N2C(=O)C=CC2=O)cc(N2C(=O)C=CC2=O)c1
(35) CCc1ccc(CNC(=O)C2COc3ccc(OC)cc3C2)cc1 (centres undefined)
(36) COc1cccc(-n2cc3c(=O)n(C)c(=O)n(C)c3c2)c1
Assay by compound	31	32	33	34	35	36
gsp agonist	8.1%[15.4 µM]	-10.8%	11.8%	-55.4%[inhibitor]	/	-60.1%[inhibitor]
ClpP mod	-3.6%	/	0.2%	-2.6%	1.4%	-6.0%
TRPML1 inh	-3.9	35.0	34.0	-22.3	2.5	-20.9
TRPML1 agonist	-0.5	0.6	-0.1	0.2	0.5	-0.7
gsp antag	3.7%	0.3%	-0.8%	11.6%	/	0.3%
Menin-MLL FL inh	/	1.6	4.2	/	/	-1.0

(37) COc1cccc(CN2C(=O)c3ccccc3Sc3ccc(C(=O)NCc4ccccc4)cc32)c1
(38) Cc1nn2cc(-c3ccccc3)nc2s1
(39) CC(C)CCN(Cc1ccco1)C(=O)c1cc2c(s1)-c1ccccc1OC2
(40) C=CCOc1cccc(C2C(C(=O)c3ccco3)=C(O)C(=O)N2Cc2ccncc2)c1 (centres undefined)
(41) COC(=O)c1ccccc1NC(=O)N[C@@H](C)C(=O)OC
(42) O=C(Cn1[nH]c(=O)c2ccccc2c1=O)NCc1cccnc1
Assay by compound	37	38	39	40	41	42
gsp agonist	/	-2.2%	/	2.9%	-46.2%[inhibitor]	9.9%
ClpP mod	-1.8%	0.6%	4.0%	-0.4%	28.2µM*	-2.1%
TRPML1 inh	2.8	1.7	-9.8	4.4	25.1	-8.6
TRPML1 agonist	0.6	0.3	1.4	-0.1	1.5	-0.3
gsp antag	/	4.0%	/	8.8%	-2.3%	5.2%
Menin-MLL FL inh	/	0.5	/	-5.8	-1.8	0.8

(43) Cc1ccc(NS(=O)(=O)c2ccc3c(c2)n(C)c(=O)n3C)cc1C
(44) CC(=O)Nc1nc(-c2ccccc2)nc(C)c1C(C)=O
(45) c1ccc(-n2nnc(-c3nccs3)n2)cc1
(46) Cc1cc(C(=O)N2CCN(c3ccc([N+](=O)[O-])cc3)CC2)n[nH]1
(47) CC(=O)c1cccc(S(=O)(=O)N(Cc2cc3cc4c(cc3[nH]c2=O)OCCO4)CC2CCCO2)c1 (centres undefined)
(48) Cc1cc(C)n(C(=O)c2ccc([N+](=O)[O-])cc2N)n1
Assay by compound	43	44	45	46	47	48
gsp agonist	-43.2%	0.0%	/	-38.5%	-22.1%	-4.1%[15.4 µM]
ClpP mod	-0.6%&-1.0%	-3.8%	-0.9%	1.4%	-7.2%	/
TRPML1 inh	-2.5&-4.6	-12.6	17.2	2.6	-7.0	9.6
TRPML1 agonist	0.4&-0.7	-0.8	-0.2	0.5	4.0	-0.4
gsp antag	-24.5%	2.2%	10.7%	-0.1%	-21.7%	/
Menin-MLL FL inh	0.3	-1.4	/	-0.2	-2.1	-3.2

(49) Cc1ccc(C(=O)OCC(=O)NCCc2ccccc2)cc1C
(50) Cc1cc(F)ccc1NC(=O)C1CCN(C(=O)c2cnn(-c3ccccc3)c2-n2cccc2)CC1
(51) O=C(CCNS(=O)(=O)c1ccccc1C(F)(F)F)N1CCN(C(c2ccccc2)c2ccccc2)CC1
(52) CCc1ccccc1NC(=O)COC(=O)C1CC(=O)N(c2ccc(F)cc2)C1 (centres undefined)
(53) O=C(NCCc1ccc(F)cc1)C(=O)NCC(c1ccc2c(c1)OCO2)N1CCOCC1 (centres undefined)
(54) COc1ccccc1NC(=O)CSC1=Nc2ccccc2C2=NC(CCC(=O)NCc3ccco3)C(=O)N12 (centres undefined)
Assay by compound	49	50	51	52	53	54
gsp agonist	-6.1%	/	1.0%[15.4 µM]	-34.5%[inhibitor]	/	/
ClpP mod	-0.4%	1.2%	-5.1%	-1.0%	-3.9%	1.1%
TRPML1 inh	0.8	11.2	2.3	-6.9	19.0	-8.7
TRPML1 agonist	0.3	-0.7	2.8	-0.2	1.2	0.2
gsp antag	-8.9%	/	-17.5%	-17.4%	/	/
Menin-MLL FL inh	/	/	/	0.6	/	/

# Bioassay records as filed in PubChem BioAssay.
